Screening data (PubChem)
CDC25B CDK2 inh: primary biochemical HTRF screen for blockers of M-phase inducer phosphatase 2 binding to CDK2/cyclin A. z-score (no concentration beside the values). P30305+P24941. HTRF CDC25B-CDK2/CyclinA binding, anti-His/anti-Flag; stronger effect = higher value. 0.72% of 94,000 active;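 further: score is relative to mean and SD of negative controls; strong numbers were not always called active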
TAR Tat displ: TAR RNA-Tat peptide displacers, HIV-1, primary screen, biochemical, FRET, FAM/TAMRA-labeled Tat; HIV-1 TAR RNA, Tat peptide displacement FRET; stronger effect = higher value; 0.6% of 100,000 active; z-score (test concentration not listed);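 further: score is relative to mean and SD of negative controls; some compounds called inactive have numbers as strong as hits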
* hit, by the source's call; · = not tested or not shown.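 How the source made its calls: active means z-score from 3 up in half or more of its runs; inactive means the rest.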 An unsorted share of the library; overall some 0.97% were active at least once.

SMILES	CDC25B CDK2 inh	TAR Tat displ
CC(=O)N1CCC2(CC1)OC(=O)C(C)=C2C(=O)NCCC(C)C	·	1.86
CCOc1ccc(C(Nc2ccccn2)c2ccc3ccc(C)nc3c2O)cc1 (stereo not drawn)	-2.13	-0.74
CCOC(=O)C1=C(C)NC2=C(C(=O)C(C(=O)OC)C(C)C2)C1c1ccc(O)c(OCC)c1 (stereo not drawn)	-0.95	1.21
CCN1C=C(Cc2ccc(F)cc2)C2=C(C1)C(c1ccc(F)cc1)C(C#N)=C(N)O2 (stereo not drawn)	1.65	·
COc1ccccc1-c1noc2ncnc(N3CCN(c4ccccn4)CC3)c12	·	1.23
CCOC(=O)C1=C(C)Nc2nc3ccccc3n2C1/C=C/c1ccccc1 (stereo not drawn)	-0.71	0.56
Cc1ccc(-n2c(C)c(C)c3c2ncn2nc(-c4cccnc4)nc32)c(C)c1	-1.79	2.01
COc1ccc(Cl)cc1CNCCSc1nnnn1-c1ccccc1	-0.79	2.36
CCOC(=O)C1=CN(c2cc(C)cc(C)c2)C=C(C(=O)OCC)C1c1ccsc1	-1.18	·
CCSc1ncc(Cl)c(C(=O)N(Cc2cccs2)C2CCS(=O)(=O)C2)n1 (stereo not drawn)	-0.3	3.27
Cc1c(C(=O)N2CCCCC2)sc2nc(C(F)(F)F)nn12	-1.05	·
CCOC(=O)c1c(C)oc2c1c(C(c1ccncc1)N1CCCCC1)c(O)c1ccccc12 (stereo not drawn)	-3.79	·

The closing six records of the part above lead into the next.
SMILES	CDC25B CDK2 inh	TAR Tat displ
Cc1ccc(-n2c(C)c(C)c3c2ncn2nc(-c4cccnc4)nc32)c(C)c1	-1.79	2.01
COc1ccc(Cl)cc1CNCCSc1nnnn1-c1ccccc1	-0.79	2.36
CCOC(=O)C1=CN(c2cc(C)cc(C)c2)C=C(C(=O)OCC)C1c1ccsc1	-1.18	·
CCSc1ncc(Cl)c(C(=O)N(Cc2cccs2)C2CCS(=O)(=O)C2)n1 (stereo not drawn)	-0.3	3.27
Cc1c(C(=O)N2CCCCC2)sc2nc(C(F)(F)F)nn12	-1.05	·
CCOC(=O)c1c(C)oc2c1c(C(c1ccncc1)N1CCCCC1)c(O)c1ccccc12 (stereo not drawn)	-3.79	·
Cc1ccc2nc(NC(=O)CSc3nc(=O)n(CCN4CCOCC4)c4c3CCC4)sc2c1	·	0.4
COCCNC(=O)C1(C)CCC(=O)N1Cc1ccco1 (stereo not drawn)	·	1.14
CCOC(=O)Cn1c(=O)c(-c2nc(-c3ccc(Cl)cc3)cs2)cn(C(C)C)c1=O	-0.17	·
O=C(C1CCCN(S(=O)(=O)c2ccc3[nH]c(=O)oc3c2)C1)N1CC=C(c2ccccc2)CC1 (stereo not drawn)	·	0.5
O=C1Nc2ccccc2/C1=N\N1CCN(Cc2cccc3ccccc23)CC1	-2.08	·
Cc1cc(C)cc(Oc2c(C(F)(F)F)oc3c(CN4CCN(C)CC4)c(O)ccc3c2=O)c1	-0.08	1.37
O=C(O)c1ccccc1C(=O)NCCNc1ccc(C(F)(F)F)cn1	-1.1	·
CCCc1c(C)nc2ncnn2c1Nc1cccc(C)c1	-0.62	0.09
O=C1CC(c2cccc(F)c2)C2=C(CC(c3ccc(F)cc3)CC2=O)N1 (stereo not drawn)	0.89	1.45
COc1ccc(CNCc2ccc(OC)c(OC)c2)cc1C	-1.72	·
CCCc1c(C)nc2ncnn2c1Nc1ccc(OC)cc1OC	-1.94	1.48
O=c1[nH]c(=S)[nH]c2scc(-c3cccs3)c12	-7.95	·
N#Cc1cc2c(nc1SCC(=O)Nc1nc(-c3ccccc3)cs1)CCCC2=O	-1.63	2.31
CCC(C)OC(=O)COc1ccc2c(=O)c(Oc3cccc(C)c3)coc2c1 (stereo not drawn)	0.23	0.52
O=C(Cn1cc(S(=O)(=O)c2ccc(F)cc2)c(=O)c2ccccc21)Nc1ccc(F)c(Cl)c1	-3.09	·
N=C(N)SCc1csc2ccccc12	-1.98	·
CCOC(=O)CSc1ccc2nnc(-c3ccc(OCC)cc3)n2n1	-0.11	·
O=C(Nc1ccc(Cl)cc1Cl)c1csc(-c2cccnc2)n1	0.81	·
Cc1ccc(CNc2cc(-n3nc(C)cc3C)ncn2)cc1	·	0.48
COc1ccc(S(=O)(=O)n2nc(-c3ccc(C)cc3)cc2N)cc1OC	-1.33	-0.64
COc1cc(OC)c2c(c1)C(=O)OC2OC (stereo not drawn)	-2.13	·
O=C(OCc1cc(=O)n2nc(C3CC3)sc2n1)c1ccc(F)cc1	·	0.29
OCCNC(=S)Nc1ccc(C2CCCCC2)cc1	-0.52	·
CCCCC(=O)Nc1ncc2c(n1)CC(C)(C)CC2=O	1.64	0.38
CCc1ccc(S(=O)(=O)Nc2ccc3c(c2)N(S(=O)(=O)c2cccs2)CCC3)cc1	·	1.23
Cc1nn2c(C(F)(F)F)cc(-c3ccc(OC(C)C)cc3)nc2c1C#N	-0.62	-0.52
CCOC(=O)c1nc(N2CCN(c3ccc(OC)cc3)CC2)c2c(C)noc2n1	·	0.57
O=C(O)P(=O)(O)O	·	2.33
O=c1c(N2CCc3ccccc3C2)csc2ccc(Cl)cc12	·	0.79
Cc1nnc2sc(-c3cccc(N)c3)nn12	-1.77	-1.25
COc1ccc(S(=O)(=O)N2CC(C)N(S(=O)(=O)c3ccc(OC)cc3)CC2C)cc1 (stereo not drawn)	-0.21	·
CCCCc1nnc(NC(=O)CSCc2cc(=O)n3c4c(sc3n2)CCCC4)s1	·	0.18
COc1ccc(C2C(C(=O)OCCOC(C)C)=C(C)NC3=C2C(=O)CC(C)(C)C3)cc1O (stereo not drawn)	-0.35	0.46
Cn1c(SCC(=O)c2c[nH]c3ccccc23)nnc1-c1cccs1	-2	-7.17
Cc1ccsc1CN(C(=O)c1oc2ccccc2c1C)C1CCS(=O)(=O)C1 (stereo not drawn)	0.32	2.56
Cn1cc(NC(=O)N2CCCc3ccccc32)c2ccccc2c1=O	·	-1.98
O=C(CN1c2ccc(Br)cc2-c2ccccc2S1(=O)=O)NCc1ccccc1	-2	-1.17
C=CCN(CC=C)CC(O)Cn1c2ccccc2c2ccccc21 (stereo not drawn)	-0.51	·
Cc1ccccc1Cn1cnc2c(nnn2Cc2ccccc2F)c1=O	-1.59	·
NC(=O)c1ncn(C2OC(CO)C(O)C2O)c1N (stereo not drawn)	·	1.09
COC(=O)c1cc(Br)ccc1OC(=O)c1cccnc1	-0.99	2.85
Cc1cc(Cl)ccc1Nc1nc(N2CCN(CCO)CC2)nc2c1cnn2C	·	2.22
N#CCCN(Cc1cccs1)S(=O)(=O)c1cccs1	-0.81	·
COc1ccc(Oc2coc3cc(OC(=O)N4CCOCC4)ccc3c2=O)cc1	-1.22	0.17
CCC(=O)Nc1cc(F)c2nc(N3CCOCC3)ccc2c1	·	0.39
CCC(C)NC(=O)c1cc2c(=O)n3cccc(C)c3nc2s1 (stereo not drawn)	0.21	·
O=S(=O)(NCc1cccs1)c1cc(-c2noc(C3CC3)n2)cs1	·	2.11
Cc1ccc(-c2c(Nc3ccc(C(C)C)cc3)c(=O)c2=O)cc1C	·	3.69
Cc1nc(SCC(=O)OCc2ccccc2)c(C#N)c(C)c1C	0.36	·
COc1ccc(-c2csc(-c3nc(-c4cccs4)cs3)n2)cc1F	-1.42	-1.46
CCn1nccc1C1CCCN1S(=O)(=O)c1cccc2nsnc12 (stereo not drawn)	-2.1	0.02
CCN=C1NS(=O)(=O)C(c2ccc(C)c(C)c2)=C1C	-0.4	1.13
C=CCN(C(=O)CSc1nnc(CC)n2c1cc1oc(C)cc12)c1ccccc1	·	0.2
COc1ccccc1N1CCN(S(=O)(=O)c2c(C)nc3sc(C)c(C)n3c2=O)CC1	·	0.37
Cn1c(=O)n(CC(=O)N2CCCC2)c(=O)c2cc(S(=O)(=O)NC(C)(C)C)ccc21	·	1.81
CCCCOC(=O)C1=C(C)NC2=C(C(=O)CCC2)C1c1ccc(C(=O)OC)cc1 (stereo not drawn)	-1.84	1.35
COc1ccc(CNc2nc(-c3cccs3)c(C#N)c(=O)n2C)cc1	-1.07	·
COCc1nc2ccccc2n1CCCOc1cc(C)ccc1C(C)C	-0.41	-0.09
O=C(Nc1cccc(Cl)c1)N1CCSc2ncccc21	·	1.93
COc1ccc(Nc2c(-c3ccc(O)cc3)nc3sccn23)cc1OC	-2.9	-1.16

The list goes on:
SMILES	CDC25B CDK2 inh	TAR Tat displ
CCSc1nc(-c2ccccc2OC)nc2c1Cc1c(CO)cnc(C)c1O2	·	2.14
NC(=O)c1cc(S(=O)(=O)N2CCN(c3ncccn3)CC2)cs1	·	0.68
COc1ccc2c(=O)c(-c3cc4c(cc3OC)OCO4)coc2c1	·	20*
Cn1cncc1S(=O)(=O)/C(C#N)=C/c1ccccc1Sc1ccc(Cl)cc1	-1.04	·
O=[N+]([O-])C1=Cc2cc(Cl)cc(Cl)c2OC1c1ccc(F)cc1 (stereo not drawn)	-1.41	·
Cc1ccc(-n2ncc3c(NC(C)c4ccccc4)ncnc32)cc1 (stereo not drawn)	·	1.81
CC(C(=O)N1CCCCC1)n1ccc2cc(S(=O)(=O)N3CCCC3)ccc21 (stereo not drawn)	·	0.45
COC(=O)c1c(NC(=O)COc2ccccc2Br)sc2c1CCCC2	-6.86	1.31
CCC(C)NS(=O)(=O)c1cc(Br)cc2c1N(C(C)=O)CC2 (stereo not drawn)	-0.25	·
CCn1c(=O)sc2cc(NS(=O)(=O)c3ccc(F)c(C)c3)ccc21	-0.33	1.1
CCC(C)NC(=O)NCc1c(C)nn(C)c1C (stereo not drawn)	·	0.36
CC(C)c1ccc(C2NC(=O)c3n[nH]c(-c4ccco4)c32)cc1 (stereo not drawn)	1.23	-3.82
CCc1ccc(C(=O)CSc2cc(C)nc3nc(C)nn23)cc1	1.55	0.5
COc1ccc(C(=O)n2nc(N)c3cc4cc(OC)ccc4nc32)cc1	1.58	1.4
O=C1C2C(C(=O)N1C13CC4CC(CC(C4)C1)C3)C1C=CC2C12CC2 (stereo not drawn)	-0.37	·
CCC(=O)N1c2ccc(S(=O)(=O)N3CCOCC3)cc2CC1C (stereo not drawn)	·	0.33
CCCc1cc(=O)n2[nH]c(NC(=O)C(C)C)nc2n1	-0.49	0.4
O=C(Nc1ccccc1)Nc1ccccc1Sc1nccc(C(F)(F)F)n1	-1.13	·
CCN(CC)CCCN(C)C(=O)c1cc2c(s1)-c1ccccc1OC2	0.84	0.98
Fc1ccc(-c2csc3ncnc(NC4CC4)c23)cc1	·	0.1
CCOc1c(N2c3ccccc3CC2C)c(=O)c1=O (stereo not drawn)	·	0.13
C/C(=N/OC(=O)c1ccccc1)c1oc(C)nc1C	-1.69	·
CCc1ccc(S(=O)(=O)NCCc2cn3cccc(C)c3n2)s1	-0.22	·
Fc1ccc(N=CNc2ccc(F)cc2F)c(F)c1	-2.27	·

Whole records from above:
Profile of `Fc1ccc(N=CNc2ccc(F)cc2F)c(F)c1` = CDC25B CDK2 inh: -2.27; TAR Tat displ: ·
Profile of `CCC(=O)N1c2ccc(S(=O)(=O)N3CCOCC3)cc2CC1C` (stereo not drawn) = CDC25B CDK2 inh: ·; TAR Tat displ: 0.33
Profile of `CCc1ccc(S(=O)(=O)NCCc2cn3cccc(C)c3n2)s1` = CDC25B CDK2 inh: -0.22; TAR Tat displ: ·

The list goes on.
SMILES	CDC25B CDK2 inh	TAR Tat displ
O=C(Nc1cccnc1)c1nn(-c2ccc(F)cc2)ccc1=O	2.31	0.05
Cc1ccc(Cn2cnc3scc(-c4ccc(C)cc4)c3c2=O)cc1	3.06	2.08
COc1ccc(-c2nnc(SCc3ccc(C)cc3)o2)cc1	0.46	0.98
CC1=C(C(=O)Nc2cccc(C(=O)NC3CC3)c2)SCCO1	·	1.05
COc1ccc(C2Nc3ccccc3NC3=C2C(=O)CC(c2cccs2)C3)cc1 (stereo not drawn)	2	-0.18
CC(=O)Nc1cccc(OCCCN2CCS(=O)(=O)CC2)c1	-4	·
CC1CCN(C(=O)c2ccc(-n3ccc4ccccc43)s2)CC1	·	-0.7
COC(=O)c1cc(OC)c(OC)c(OC)c1NC(=O)c1cc2ccccc2oc1=O	-2.32	·
O=C(Nc1ccc2c(c1)OCCO2)C1CCN(c2cnc3ccccc3n2)CC1	·	1.51
Cc1cc(=O)n2c(n1)SCOC2	-1.97	·
CCOC(=O)c1c(S(=O)(=O)NCCCOC(C)C)c(C)n(C)c1C	·	3.7
C=CCOc1ccc(CNCCCSc2nnnn2C)cc1	-0.28	0.56
CCCN(c1ccc(C(C)C)cc1)S(=O)(=O)c1cc(Br)cnc1N	-1.93	1.51
Cc1sc2[nH]c(=S)[nH]c(=O)c2c1C	-2.82	·
CCCC(O)c1nc2ccccc2n1CCC(C)C (stereo not drawn)	-1.78	0.93
Cc1oc2ncnc(N3CCCC(C(=O)O)C3)c2c1C (stereo not drawn)	-0.23	-0.03
Cc1ccc(S(=O)(=O)NCCc2csc(-c3ccc(Cl)cc3)n2)cc1C	·	-0.72
COc1ccc(N2C(=O)CC(N3CCC(O)(c4ccc(Br)cc4)CC3)C2=O)cc1 (stereo not drawn)	·	1.86
c1ccc(CSc2nc3ncccc3[nH]2)cc1	·	-0.08
COc1cc(C2N(c3cc(C)on3)C(=O)C3CCCN32)cc(OC)c1OC (stereo not drawn)	-1.18	·
